From PubChem BioAssay
Env fusion inh: inhibitors of HIV Env-mediated cell fusion; inhibition, % at 12.3 µM; AID 651610; 360,000 tested, 1.1% active; HeLa-JRFL Env/CEM21 cell fusion, luciferase;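 active means mean replicate inhibition score of at least 50 and every replicate individually at or above 50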;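 further: 0% = plate neutral controls and 100% = maraviroc near 300 nM; one replicate is shown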
* = called active by the depositor; [ ] = dose if it differs, or a comment. These rows are one share of the data; count on the stated rates, not on these rows.

SMILES	Env fusion inh
CO[C@@H]1CN(C)C(=O)c2cc(NS(=O)(=O)c3cn(C)cn3)ccc2OC[C@H](C)N(C)C[C@H]1C	1[16.7 µM]
CC=Cc1ccc2n(c1=O)C[C@H]1[C@H](CO)[C@@H](C(=O)NCCC)[C@@H]2N1CC1CCCC1 (mixture of isomers)	-2[16.7 µM]
C[C@H](CO)N1C[C@H](C)[C@H](CN(C)Cc2cccc(C(=O)O)c2)Oc2ncc(C#C[C@@H](C)O)cc2C1=O	-8[16.7 µM]
CCCNC(=O)N1CC2(CCN(C(=O)c3ccncc3)CC2)c2c([nH]c3cc(OC)ccc23)[C@@H]1CO	0[16.7 µM]
CN1CCN(C(=O)C[C@H]2CC[C@H](NC(=O)c3ccc4c(c3)OCO4)[C@@H](CO)O2)CC1	15[16.7 µM]
O=C(Nc1ccc(Cl)cc1)OC[C@@H]1CSCCS(=O)(=O)N1	-26
O=S1(=O)N[C@H](Cc2ccccc2)COc2cc(Br)ccc21	-12
COC(=O)C[C@H]1C[C@@H]2c3cc(NS(C)(=O)=O)ccc3O[C@@H]2[C@@H](CO)O1	-1[16.7 µM]
CO[C@H]1CN(C)C(=O)c2cc(NC(=O)c3ccccc3F)ccc2OC[C@@H](C)N(CC2CCOCC2)C[C@@H]1C	-2[16.7 µM]
O=C(C[C@@H]1CC[C@@H]2[C@H](COC[C@@H](O)CN2C(=O)c2ccc(F)cc2)O1)N1CCCCC1	6[16.7 µM]
C[C@@H](NC(=O)[C@H]1[C@H](CO)[C@H]2Cn3c(ccc(-c4ccccc4F)c3=O)[C@@H]1N2C)c1ccccc1	7[16.7 µM]
C[C@H](CO)N1C[C@H](C)[C@@H](CN(C)Cc2ccncc2)Oc2ccc(NC(=O)Nc3cccc4ccccc34)cc2C1=O	10[16.7 µM]
CO[C@@H]1CN(C)C(=O)c2ccc(NC(=O)C3CCOCC3)cc2OC[C@@H](C)N(C)C[C@H]1C	1[16.7 µM]
C[C@@H]1CN([C@@H](C)CO)C(=O)c2cc(Br)cnc2O[C@@H]1CN(C)C(=O)C1CCC1	7[16.7 µM]
O=C(C[C@H]1CC[C@H]2[C@@H](COC[C@H](O)CN2Cc2ccc(Oc3ccccc3)cc2)O1)N1CCN(c2ccccc2)CC1	44[16.7 µM]
COc1ccc(CNC(=O)C[C@@H]2CC[C@@H](NC(=O)Nc3ccc4c(c3)OCO4)[C@H](CO)O2)cc1	11[16.7 µM]
COc1ccc(NC(=O)N(C)C[C@H]2Oc3c(NC(=O)c4cc(C)nn4C)cccc3C(=O)N([C@@H](C)CO)C[C@H]2C)cc1	3[16.7 µM]
CCS(=O)(=O)N[C@H]1CC[C@H](CC(=O)N2CCCCC2)O[C@H]1CO	-14[16.7 µM]
C[C@H](CO)N1C[C@H](C)[C@H](CN(C)C(=O)C2CC2)OCc2ccccc2-c2ccccc2C1=O	50[16.7 µM]
CCN1[C@H](C(=O)N2CCCCC2)[C@@H](CO)[C@@H]2Cn3c(ccc(-c4cccc(F)c4)c3=O)[C@@H]21	20[16.7 µM]
O=C(C[C@@H]1CC[C@@H]2[C@H](COC[C@@H](O)CN2CC2CCOCC2)O1)NCc1ccc(Cl)cc1	-8[16.7 µM]
OCC1OC(C(N=Nc2ccccc2)=NNc2ccccc2)C(O)C1O (stereo not given)	-12
CO[C@H]1CN(C)C(=O)c2cc(NC(=O)Nc3ccc(C(F)(F)F)cc3)ccc2OC[C@H](C)NC[C@@H]1C	-2[16.7 µM]
COc1ccc(NC(=O)N(C)C[C@H]2OCc3cn(nn3)CCCC(=O)N([C@H](C)CO)C[C@H]2C)cc1	-14[16.7 µM]
C[C@@H]1CN([C@H](C)CO)C(=O)Cc2cc(NS(=O)(=O)c3cn(C)cn3)ccc2O[C@@H]1CN(C)Cc1ccc(-c2ccccc2)cc1	15[16.7 µM]
COCC(=O)N1C[C@H](C)[C@@H](OC)CN(C)C(=O)c2cc(NC(=O)c3cc(C)on3)ccc2OC[C@H]1C	15[16.7 µM]
CC(C)NC(=O)Nc1ccc2c(c1)C(=O)N([C@@H](C)CO)C[C@H](C)[C@H](CN(C)Cc1ccncc1)OCCCC[C@H](C)O2	-3[16.7 µM]
CSc1c(N(C)C)c(=O)c1=S	0
O=C(NC[C@@H]1CC[C@@H]2[C@@H](CN2Cc2cccc(Cl)c2)O1)C1CCC1	-22[16.7 µM]
C[C@H]1CN([C@@H](C)CO)C(=O)c2cc(C#CC3CCCC3)cnc2O[C@@H]1CN(C)C(=O)c1ccncc1	7[16.7 µM]
O=C(C[C@@H]1C=C[C@@H](NC(=O)c2cccc(F)c2)[C@H](CO)O1)Nc1nccs1	27[16.7 µM]
CNC[C@@H]1Oc2c(N)cccc2C(=O)N([C@@H](C)CO)C[C@@H]1C	62*[16.7 µM]
CNC[C@H]1OCCCC[C@@H](C)Oc2ccc(NC(=O)NC(C)C)cc2C(=O)N([C@@H](C)CO)C[C@@H]1C	-6[16.7 µM]
O=[N+]([O-])c1ccc2c(c1)CCCO[C@]21O[C@H](CCO)C[C@H](O)[C@H]1O	-80
COc1cccc(CC(=O)N2CCN(C(=O)C(=O)c3cccc(C(F)(F)F)c3)CC2)c1	17
COc1cccc(S(=O)(=O)Nc2ccc3c(c2)OC[C@H](C)NC[C@H](C)[C@@H](OC)CN(C)C3=O)c1	-21[16.7 µM]
COc1ccccc1C(=O)Nc1ccc2c(c1)C(=O)N(C)C[C@@H](OC)[C@@H](C)CN(C)[C@H](C)CO2	10[16.7 µM]
CC(C)C[C@H](NC(=O)c1cccs1)C(=O)N1CCC[C@H]1C(=O)NCc1ccccc1	-17
COC(=O)C[C@H]1CC[C@H]2[C@@H](COc3ccc(NS(=O)(=O)c4ccccc4Cl)cc3C(=O)N2C)O1	9[16.7 µM]
O=C(C[C@H]1CC[C@H]2[C@@H](COC[C@@H](O)CN2CC2CCCC2)O1)NCC1CC1	-36[16.7 µM]
CCCN1C[C@@H](C)[C@H](OC)CN(C)C(=O)c2cc(NC(=O)C3CCC3)ccc2OC[C@@H]1C	-22[16.7 µM]
O=C(C[C@H]1CC[C@@H]2[C@H](COC[C@H](O)CN2C(=O)Nc2ccc(Cl)cc2)O1)NCCc1ccncc1	-7[16.7 µM]
C[C@@H]1COc2cccc(N3CCCC3)c2S(=O)(=O)N1	4
CC(C)(C)[S@@](=O)N1Cc2cc(C(=O)N3CCCCC3)nc(-c3cccc(-c4cccc(C#N)c4)c3)c2[C@H]1CCO	6[16.7 µM]
C[C@@H]1CCCCO[C@H](CN(C)S(=O)(=O)c2cn(C)cn2)[C@H](C)CN([C@H](C)CO)C(=O)c2cc(N(C)C)ccc2O1	-1[16.7 µM]
O=C(Nc1ccc2c(c1)[C@@H]1C[C@@H](CC(=O)N3CCCCC3)O[C@@H](CO)[C@@H]1O2)C1CCOCC1	-14[16.7 µM]
CS(=O)(=O)Nc1ccc2c(c1)[C@H]1C[C@H](CC(=O)NC3CCCC3)O[C@@H](CO)[C@H]1O2	9[16.7 µM]
CCN1[C@H](C(=O)NCCc2cn(C)cn2)[C@@H](CO)[C@@H]2Cn3c(ccc(-c4ccc(F)cc4)c3=O)[C@@H]21	-12[16.7 µM]

Random excerpt: 4 entries already listed, in no set order.
SMILES	Env fusion inh
COc1ccccc1C(=O)Nc1ccc2c(c1)C(=O)N(C)C[C@@H](OC)[C@@H](C)CN(C)[C@H](C)CO2	10[16.7 µM]
CCN1[C@H](C(=O)NCCc2cn(C)cn2)[C@@H](CO)[C@@H]2Cn3c(ccc(-c4ccc(F)cc4)c3=O)[C@@H]21	-12[16.7 µM]
C[C@@H]1COc2cccc(N3CCCC3)c2S(=O)(=O)N1	4
CCCN1C[C@@H](C)[C@H](OC)CN(C)C(=O)c2cc(NC(=O)C3CCC3)ccc2OC[C@@H]1C	-22[16.7 µM]

(more compounds)
SMILES	Env fusion inh
CO[C@H]1CN(C)C(=O)c2ccc(NC(C)=O)cc2OC[C@H](C)N(C(=O)c2ccccc2)C[C@H]1C	1[16.7 µM]
CCCNC(=O)N[C@H]1C=C[C@@H](CC(=O)NCCc2ccccc2)O[C@@H]1CO	25[16.7 µM]
COc1ccc(-c2ccc3n(c2=O)C[C@@H]2[C@@H](CO)[C@H](C(=O)Nc4ccccc4)[C@H]3N2C)cc1	-1[16.7 µM]
C[C@H]1CN([C@@H](C)CO)C(=O)c2ccccc2-c2ccccc2CO[C@H]1CN(C)Cc1ccc2c(c1)OCO2	48[16.7 µM]
COc1ccc2c(c1)[C@]1(C(=O)N2C)C2=C(CCCC2=O)Oc2cc(C)oc(=O)c21	65*
CN(C)C(=O)[C@H]1[C@H](CO)[C@H]2Cn3c(ccc(C4=CCCCC4)c3=O)[C@H]2N1Cc1ccccn1	-17[16.7 µM]
CC(=O)N1C[C@@H](CN2C(=O)CCC2=O)[C@@H]2C[C@H]1c1ccccc1N2C	7
C[C@H](O)C#Cc1cnc2c(c1)C(=O)N([C@@H](C)CO)C[C@H](C)[C@@H](CN(C)C(=O)Cc1ccncc1)O2	-12[16.7 µM]
CO[C@H]1CN(C)C(=O)c2ccc(NS(=O)(=O)c3ccccc3F)cc2OC[C@@H](C)NC[C@H]1C	1[16.7 µM]
CO[C@H]1CN(C)C(=O)c2cc(NC(C)=O)ccc2OC[C@H](C)NC[C@@H]1C	-25[16.7 µM]
CC(C)COC(=O)N(C)C[C@@H]1OCc2ccccc2-c2ccccc2C(=O)N([C@@H](C)CO)C[C@H]1C	-19[16.7 µM]
O=C(NCCCN1CCOCC1)[C@H]1[C@H](CO)[C@H]2Cn3c(ccc(C4=CCCCC4)c3=O)[C@@H]1N2	4[16.7 µM]
CO[C@@H]1CN(C)C(=O)c2ccc(NC(=O)c3nc4ccccc4s3)cc2OC[C@@H](C)N(Cc2cccnc2)C[C@H]1C	27[16.7 µM]
O=C1NC(Cc2cccc(Cl)c2)COCc2cnnn2CCC1c1ccccc1 (stereo not given)	-47[16.7 µM]
CC(C)NC(=O)N[C@H]1CC[C@H](CC(=O)NCCCN(C)C)O[C@@H]1CO	5[16.7 µM]
Cc1noc(C)c1NC(=O)Nc1cccc2c1O[C@H](CN(C)Cc1ccncc1)[C@@H](C)CN([C@H](C)CO)C2=O	11[16.7 µM]
CO[C@H]1CN(C)C(=O)c2ccc(NC(C)=O)cc2OC[C@H](C)N(Cc2ccccc2F)C[C@H]1C	5[16.7 µM]
O=Cc1cc([B-](F)(F)F)cs1	-10
O=C(C[C@@H]1CC[C@H]2[C@@H](COC[C@H](O)CN2Cc2ccc(Oc3ccccc3)cc2)O1)N1CCc2ccccc2C1	20[16.7 µM]
CO[C@@H]1CN(C)C(=O)c2ccc(NC(=O)C3CCCC3)cc2OC[C@H](C)N(C(=O)CC2CC2)C[C@H]1C	-2[16.7 µM]
Cc1[nH]nc2c1C(c1ccc(Br)cc1)N(c1ccccc1)C2=O (stereo not given)	-13
C[C@@H]1CCCCO[C@H](CN(C)C)[C@H](C)CN([C@@H](C)CO)C(=O)c2cc(NC(=O)Nc3ccc4c(c3)OCO4)ccc2O1	0[16.7 µM]
O=C(NC[C@@H]1CC[C@H]2[C@H](CN2C(=O)C2CCOCC2)O1)c1cccnc1	-15[16.7 µM]
O=C(Nc1cccc(F)c1)N[C@@H]1CC[C@H](CCNS(=O)(=O)c2cccc(Cl)c2)O[C@@H]1CO	80*[16.7 µM]

With a hit mark in Env fusion inh, of those listed so far:
SMILES	Env fusion inh
CNC[C@@H]1Oc2c(N)cccc2C(=O)N([C@@H](C)CO)C[C@@H]1C	62*[16.7 µM]
COc1ccc2c(c1)[C@]1(C(=O)N2C)C2=C(CCCC2=O)Oc2cc(C)oc(=O)c21	65*
O=C(Nc1cccc(F)c1)N[C@@H]1CC[C@H](CCNS(=O)(=O)c2cccc(Cl)c2)O[C@@H]1CO	80*[16.7 µM]

The results go on:
SMILES	Env fusion inh
CO[C@H](CN(C)Cc1cc(F)ccc1F)[C@@H](C)CN([C@H](C)CO)S(=O)(=O)c1ccc(F)cc1	-8[16.7 µM]
COc1ccc(NC(=O)Nc2ccc3c(c2)[C@H]2C[C@@H](CC(=O)NCC(F)(F)F)O[C@@H](CO)[C@H]2O3)cc1	-2[16.7 µM]
O=C(C[C@H]1CC[C@@H](NC(=O)Cc2cccnc2)[C@@H](CO)O1)Nc1ccc(-c2ccccc2)cc1	14[16.7 µM]
C[C@H](CO)N1C[C@H](C)[C@H](CN(C)Cc2ccc(Cl)c(Cl)c2)Oc2ccc(NS(C)(=O)=O)cc2CC1=O	1[16.7 µM]
CNC[C@@H]1Oc2ncc(C3=CCCC3)cc2C(=O)N([C@@H](C)CO)C[C@@H]1C	-19[16.7 µM]
C[C@@H]1CN([C@@H](C)CO)C(=O)c2ccccc2-c2ccccc2CO[C@H]1CN(C)C(=O)Nc1ccc(F)cc1	-6[16.7 µM]
CC1(C)CC(=O)C=C(C#CC2CC2)C1	24
COc1ccccc1C(=O)N1CCN(C(=O)[C@@H](Cc2ccccc2)NC(=O)[C@H]2O[C@@H](n3ccc(=O)[nH]c3=O)[C@H](O)[C@@H]2O)CC1	27
CN(C)C(=O)[C@@H]1[C@@H](CO)[C@@H]2Cn3c(ccc(/C=C/c4ccccc4)c3=O)[C@@H]2N1C(=O)c1cccnc1	-4[16.7 µM]
COc1ccccc1-c1cccc(-c2nc(C(=O)N3CCOCC3)cc3c2[C@H](CCO)N([S@@](=O)C(C)(C)C)C3)c1	22[16.7 µM]
COC(=O)C1=C(C)N(Cc2ccc(F)cc2)C(=S)NC1c1ccc(F)cc1 (stereo not given)	44
C[C@@H]1CN([C@@H](C)CO)C(=O)c2cccc(NC(=O)Nc3ccc(F)cc3)c2O[C@@H]1CN(C)S(=O)(=O)c1cn(C)cn1	-10[16.7 µM]
